Compound activity from PubChem BioAssay.
FEN1 inh = blocks human flap endonuclease 1; Recombinant FEN1 flap cleavage, fluorescence, 15 min; Potency, µM (doses to about 114 µM), without a hit: top-dose activity change, negative = inhibition, hits mostly inhibitors; 390,000 tested, 0.35% active; AID 588795; note: nearly all actives have a fitted effect of over 65% in size
Target sequence (P39748 whole entry, looked up): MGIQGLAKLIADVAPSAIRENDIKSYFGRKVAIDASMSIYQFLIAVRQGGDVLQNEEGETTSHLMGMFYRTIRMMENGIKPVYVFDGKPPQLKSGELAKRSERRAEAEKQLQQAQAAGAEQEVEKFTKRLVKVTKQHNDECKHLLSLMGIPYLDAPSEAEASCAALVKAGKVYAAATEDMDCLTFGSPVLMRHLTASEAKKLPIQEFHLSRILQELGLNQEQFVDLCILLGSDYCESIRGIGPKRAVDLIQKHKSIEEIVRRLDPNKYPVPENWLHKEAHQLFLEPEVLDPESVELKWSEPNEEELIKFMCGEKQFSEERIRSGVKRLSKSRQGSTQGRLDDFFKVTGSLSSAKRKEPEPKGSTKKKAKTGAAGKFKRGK
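Concentration–response screening of FEN1 (10 nM): 15 min compound preincubation at room temperature, reaction started with 50 nM substrate and read at 0 and 15 min. Corrected, normalized data were fitted by a four-parameter Hill equation.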
N370S GC mod = inhibits or activates N370S mutant glucocerebrosidase; N370S GC spleen homogenate, 4MU-glucoside fluorescence; Potency, µM (highest dose often 59.4 µM), for the others: at the highest dose activity change, negative = inhibition, usual class: inhibitors; 330,000 tested, 0.092% active; AID 2101;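 note: 0% = full enzyme activity and -100% = no enzyme basal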
Numbers without * were called inactive; ? = inconclusive; . = not tested or not shown; & = joins results of further samples; [ ] = dose if it differs, or a comment. Calls come from the whole dose curve; as a rule, active = well fitted curve in the direction sought with a large enough effect; inconclusive = small, poorly fitted or top-dose-only effect, or another doubt; inactive = no such curve, though single readings can be large; an effect the other way counts as inactive or inconclusive. Unless noted, % is set by controls: 0 for no effect and ±100 for the full control effect; potency is the fitted concentration of half-maximal effect. Not all compounds are listed, and most or all hits are left out here.

item	compound	FEN1 inh	N370S GC mod
1	CN(C)C(=O)CN1C(=O)NC2(CCc3ccccc32)C1=O (stereo not given)	20.8%	-5.9%
2	N#Cc1ccsc1NC(=O)c1cccc(-n2cnnn2)c1	-1.3%	4.9%
3	CCSc1nnc(CSc2ncccn2)n1C	-14.0%	-1.7%
4	CN1CCN(C(=O)c2c(NC(=O)c3ccco3)sc3c2CCC(C(C)(C)C)C3)CC1 (stereo not given)	-8.8%	1.1%
5	CCC(C)c1ccc(C(C)NC(=S)NC2CCCCC2)cc1 (stereo not given)	-10.0%	5.4%
6	CCCn1c(SCC(=O)Nc2ccc3c(c2)OCCO3)nnc1-c1ccco1	-9.4%	3.9%
7	O=C(Nc1ccc2c(c1)CCC2)Nc1ccc(F)cc1F	-16.6%	-8.3%
8	Cc1cccc(NC(=O)CNC(=O)COC(=O)C2CC2C)c1C (stereo not given)	-13.7%	.
9	N#Cc1c(N)nc2c(c1-c1ccc3c(c1)OCO3)CCc1ccccc1-2	?	23.6%
10	CCOc1cccc2cc(-c3nnc(NCc4ccco4)s3)c(=O)oc12	-10.2%	-14.3%

Reprinted from the part before: 5 entries; new compounds follow.
item	compound	FEN1 inh	N370S GC mod
6	CCCn1c(SCC(=O)Nc2ccc3c(c2)OCCO3)nnc1-c1ccco1	-9.4%	3.9%
7	O=C(Nc1ccc2c(c1)CCC2)Nc1ccc(F)cc1F	-16.6%	-8.3%
8	Cc1cccc(NC(=O)CNC(=O)COC(=O)C2CC2C)c1C (stereo not given)	-13.7%	.
9	N#Cc1c(N)nc2c(c1-c1ccc3c(c1)OCO3)CCc1ccccc1-2	?	23.6%
10	CCOc1cccc2cc(-c3nnc(NCc4ccco4)s3)c(=O)oc12	-10.2%	-14.3%
11	COCC(=O)Nc1ccccc1C#N	-6.4%	15.4%
12	CCOC(=O)c1ccc(N2C(=O)c3n[nH]c(C)c3C2c2ccc(CC)cc2)cc1 (stereo not given)	-1.1%	.
13	COc1cn(-c2ccccc2)nc1C(=O)Nc1ccc(C)cc1	-15.6%	?
14	CC(=O)NCC(=O)N(c1ccccc1)C1(C(=O)NC2CCCCC2)CCCCC1	-3.6%	25.3%
15	CCOC(=O)c1ccc2c(c1)nc(COc1ccc3ccccc3c1)n2CC	?	4.2%[12.8 µM]
16	Cc1cccc(OCC(O)CN2C(C)(C)CC(O)CC2(C)C)c1C (stereo not given)	-2.8%	-1.3%
17	C=CCOCCN(C)C1=NS(=O)(=O)c2cc([N+](=O)[O-])ccc21	-3.5%	6.5%
18	O=C(Nc1ccc2c(c1)OCCO2)c1ccc(Cl)c(Cl)c1	1.3%	2.6%
19	Cc1cc(NC(=O)c2cc(-c3ccccc3)on2)n(-c2ccccc2)n1	-14.2%	-0.7%
20	Cn1ccc(NC(=O)Nc2ccc(Cl)cc2Cl)n1	-8.3%	?
21	O=C(CSc1nnc(-c2ccc([N+](=O)[O-])cc2)o1)Nc1ccccc1	-4.2%	.
22	O=C(NNc1ccc([N+](=O)[O-])cc1)C1CC2CCCC(C1)C2=O (stereo not given)	-8.3%	-6.3%
23	CCOc1ccccc1C1N(c2ccc(F)cc2)C(=O)C2CCCN21 (stereo not given)	5.4%	-0.9%
24	COc1ccc(OC)c(Nc2cc(C)nc3nc(C)nn23)c1	-9.1%	3.9%
25	CCNC(=O)C(C)Oc1ccc(Cl)cc1Cl (stereo not given)	38.6%[activator]	26.2%
26	Cc1cc(C)cc(NC(=O)CSCc2cc(=O)n3ccsc3n2)c1	-13.0%	-0.4%
27	C=CCSc1nc(C)c(CCCC)c(=O)[nH]1	-3.0%	1.7%
28	COc1ccccc1C(=O)COC(=O)C(CCSC)NC(=O)COc1ccccc1 (stereo not given)	0.4%	0.6%
29	O=C(CCCCCNC(=O)N1CCn2c1nc1ccccc12)NCc1ccc(F)cc1	-3.7%	-9.8%
30	CCOc1ccc(NC(=O)CSc2nc3ccccc3c(=O)n2CCCC(=O)NCCCN2CCCC2=O)cc1	19.3%	-22.6%
31	Cn1c(=O)cc(SCC(=O)N2CCN(Cc3ccc4c(c3)OCO4)CC2)c2ccccc21	-9.2%	10.6%
32	CCCCOn1c(C)c(C(C)=O)c2c3no[n+]([O-])c3ccc21	-3.6%	10.4%
33	Cc1csc2nc(CNC(=O)c3cccc(C(F)(F)F)c3)cn12	-1.8%	5.3%
34	O=c1c2cc(NC(=S)NCCCN3CCC(Cc4ccccc4)CC3)ccc2nc2n1CCCCC2	-3.1%	-4.5%
35	CCN(CC)C(=O)c1c(C)[nH]c(=S)c(C#N)c1-c1ccco1	-0.3%	9.4%
36	Cc1ccc(NC(=O)Cn2nc(-c3ccccc3)nc(Cc3ccc(Cl)cc3)c2=O)cc1	4.5%	.
37	Cc1ccc(C(=O)NNC2=Nc3cccc4cccc2c34)cc1	1.4%	-4.6%
38	Cn1nc(CC(=O)Nc2ccc3c(c2)OCCO3)c2ccccc2c1=O	7.8%	22.9%
39	CC(Nc1cc(=O)n(C)c(=O)n1C)c1ccccc1 (stereo not given)	2.9%	3.5%
40	CCOC(=O)c1c(C)n(C)c2cc(-c3ccc(F)cc3)c(O)cc12	-0.2%	0.5%
41	COc1ccc(OCC(=O)N2CCN(C(=O)COc3ccc(Br)cc3)CC2)cc1	-1.4%	-0.6%
42	Cc1nc2c(=O)n(-c3cccc(C(F)(F)F)c3)nc(C)c2s1	-4.1%	-1.4%
43	CCOCC(=O)OCC(=O)Nc1cc(OC)c([N+](=O)[O-])cc1C	-10.8%	-0.1%
44	Cc1ccc(NC(=O)CSc2nnc(COc3ccc(Cl)cc3)o2)c(C)c1	-13.1%	.
45	COC(=O)c1[nH]c2ccc(C)cc2c1NC(=O)CCN1CCN(Cc2ccc3c(c2)OCO3)CC1	-11.9%	-3.3%
46	NC(=O)CC(NC(=O)c1ccccc1)c1ccc(NCCOc2ccccc2)c([N+](=O)[O-])c1 (stereo not given)	-8.0%	0.5%
47	CCc1cc(C(=O)OC)c(NC(=O)c2ccoc2C)s1	-17.9%	-1.9%
48	O=S(=O)(c1ccc(Cl)cc1)N1CCNCC1	-9.9%	-2.2%
49	CCOC(=O)Cc1ccc(NC(=O)n2ncc3c(C)cccc32)cc1	5.1%	.
50	O=C(Cc1ccc(F)cc1)NCCc1csc2nc(-c3ccccc3F)nn12	7.4%	.
51	O=C(COc1ccc(Oc2ccccc2)cc1)NCc1cn2ccccc2n1	-12.3%	-12.4%
52	CCOC(=O)c1sc(Nc2nc3c(F)cccc3s2)cc1C	-0.7%	6.1%
53	CC(C)C[C@H](NC(=O)C1(c2ccccc2)CCN(C(=O)OC(C)(C)C)CC1)C(=O)N1CCC[C@H]1C(=O)O	-3.9%	0.3%
54	Cc1cccc(NC(=O)CCCNC(=O)c2ccc(Cl)cc2)n1	3.6%	-11.0%
55	COCCCNC(=O)C1CCN(Cc2cc3ccccc3n2Cc2cccc(C)c2)CC1	-18.2%	.
56	Cc1noc(C)c1Cc1ccc(O)cc1	-13.7%	-0.5%
57	O=C(CN(c1ccccc1)S(=O)(=O)c1ccccc1[N+](=O)[O-])Nc1cccnc1	10.6%	-13.7%
58	NC(=O)CN1CCOCCOCCOCCOCCOCC1	6.0%	4.9%
59	Cc1ccc(OCC(=O)OC(C)C(=O)NC2CCCCC2C)cc1C (stereo not given)	-2.4%	.
60	Cc1c(NS(=O)(=O)c2ccc(N3CCN(C)CC3)c([N+](=O)[O-])c2)c(=O)n(-c2ccccc2)n1C	2.7%	-4.3%

(more compounds)
item	compound	FEN1 inh	N370S GC mod
61	Cc1ccc(C)c(CN2C(=O)c3ccccc3S(=O)c3ccc(C(=O)NCc4ccccc4Cl)cc32)c1 (stereo not given)	13.1%	.
62	O=C(NNC(=O)c1ccccc1O)c1ccc(NS(=O)(=O)c2ccc(F)cc2)cc1	5.6%	-9.5%
63	CC(=O)NC12CC3CC(C1)CC(C(=O)N(C)CC(=O)Nc1ccc(F)c(F)c1F)(C3)C2	-13.3%	.
64	CCN(CCNC(=O)CC1Oc2ccccc2NC1=O)c1ccccc1 (stereo not given)	17.5%	-5.0%
65	Cc1nc(C)c(C(=O)OCC(=O)N2CCN(c3ccccc3)CC2)s1	-9.7%	5.8%
66	O=C(NCCCCCc1nc2ccccc2[nH]1)c1ccccc1Cl	17.8%	6.3%
67	Cc1ccc(-n2nc3c(=O)n(CCCC(=O)NCCc4ccccc4)nc(C)c3c2C)cc1	-1.9%&50.1%	2.2%
68	Cc1ccccc1C(=O)NNC(=O)C1CCN(c2ncccn2)CC1	8.8%	-11.2%
69	CCCCOc1cccc(C(=O)Nc2cc3nn(-c4ccc(F)cc4)nc3cc2C)c1	-12.5%	.
70	COc1cccc(C(=O)N2CCC(N3CCN(Cc4ccc(F)cc4)C(=O)C3=O)CC2)c1	0.8%	.
71	CCN(CCNC(=O)c1cc(C)nn1-c1ccccc1)c1ccccc1	4.5%	-1.3%
72	CC(C)Cn1c(CCCNC(=O)c2ccc(F)cc2)nc2ccccc21	-5.1%	0.3%
73	O=C(CCNC(=O)c1ccco1)NCc1ccc(F)cc1	-2.1%	.
74	Cc1noc(NS(=O)(=O)c2ccc(NC(=O)/C=C/c3ccccc3)cc2)c1C	-2.6%	.
75	COc1ccccc1NC(=O)c1ccccc1C(=O)O	12.7%	1.1%
76	O=C(NC1CCCC1)C(NS(=O)(=O)c1ccc(Br)s1)c1ccccc1 (stereo not given)	-11.7%	20.7%
77	COc1ccc(N2C(=O)c3ccccc3NC23CCC(C)CC3)cc1 (stereo not given)	-4.8%	7.4%
78	Cc1cc(C)c2c(c1)/C(=N\N=c1\sc3ccccc3n1C)C(=O)N2	9.3%	-1.0%
79	O=C(N/N=C/c1cccnc1)C1CC1(c1ccccc1)c1ccccc1 (stereo not given)	-2.0%	-3.6%
80	Cc1ccc(NC(=O)c2ccc(S(=O)(=O)Nc3c(C)n(C)n(-c4ccccc4)c3=O)cc2)nc1	8.5%	-0.7%
81	Cc1cc(C)n(C(=O)C23CC4CC(CC(C4)C2)C3)n1	.	5.0%
82	COC(=O)C1=C(C)Nc2[nH]c(=S)[nH]c(=O)c2C1c1ccc(OC)cc1 (stereo not given)	-3.8%	-5.9%
83	Cc1ccc(NS(=O)(=O)c2ccc3c(c2)NC(=O)CCS3)cc1C	13.3%&-1.4%	5.0%
84	C=CCSc1nc2sc3c(c2c(=O)n1CC=C)CCc1ccccc1-3	-1.9%	1.4%
85	Cc1ccc(C(=O)Nc2c(-c3cccs3)nc3cc(C)ccn23)cc1	-3.5%	-3.3%
86	CCOc1ccc(S(=O)(=O)NCC(c2ccc3c(c2)OCO3)N2CCN(C)CC2)cc1 (stereo not given)	3.8%	-1.9%
87	Cc1nc(N(C)C)ncc1C(=O)O	-2.9%	12.7%
88	COc1ccccc1-c1nc2cc3ccccc3cc2nc1-c1ccccc1	-11.4%	15.6%
89	COc1ccc(-n2c(Cn3c(=O)sc4ccccc43)nnc2SCC(N)=O)cc1	-11.4%	10.5%
90	O=C(Nc1nncs1)C1CC(=O)N(CCc2ccc(F)cc2)C1 (stereo not given)	12.7%	-3.4%
91	Cc1cc(C)c2cc3c(N)c(C(=O)N4CCc5ccccc5C4)sc3nc2c1	-7.9%	-3.1%
92	CC(CCC(=O)O)C1CCC2C3CC[C@H]4CC(O)CC[C@@]4(C)C3CC(O)[C@]12C (stereo not given in full)	.	5.1%
93	O=C1C=C(c2ccc(Cl)nc2)C[C@@H](c2ccc3c(c2)OCO3)C1	8.6%	.
94	Cc1ccc(S(=O)(=O)NN2Cc3ccccc3C2=N)cc1	0.3%	2.3%
95	CC(C)c1ccccc1NC(=O)COC(=O)COc1ccccc1[N+](=O)[O-]	-11.7%	-8.8%
96	N#C/C(=C\c1cn(CC(=O)O)c2ccccc12)C(=O)NCc1ccccc1	-2.8%	11.3%
97	CCSc1nc(N)c(C#N)c(-c2ccccc2Cl)c1C#N	-7.4%	-4.1%
98	O=C(Nc1cccnc1)c1cccc(S(=O)(=O)Nc2ccccc2F)c1	5.7%	-6.0%
99	Cc1c(C(=O)O)cccc1[N+](=O)[O-]	3.9%	6.8%
100	COc1ccccc1NC(=O)CN(C)S(=O)(=O)c1cc(C)ccc1OC	-9.2%	2.3%
101	COc1ccc(C2=NOC(C(=O)NCc3ccccc3)C2)cc1 (stereo not given)	0.4%	2.5%
102	COCc1c(CCl)cnc(C)c1O	1.2%	-3.4%
103	O=S(=O)(NC1c2cccc3cccc(c23)C1N1CCNCC1)c1ccccc1 (stereo not given)	-18.2%	?
104	O=C(NCc1ccccn1)c1ccc(OC2CCN(Cc3ccc(Cl)s3)CC2)cc1	11.0%	-5.3%
105	C/C(=N\NC(=O)c1ccc(CSc2nncn2C)cc1)c1ccc(Cl)cc1	-1.1%	2.9%
106	CCOc1ccc(S(=O)(=O)N2CCN(C(=O)c3ccncc3)CC2)cc1	-11.5%	-18.9%
107	O=C(Nc1cccc(Cl)c1Cl)Nn1cnnc1	-11.0%	-5.8%
108	CC(C)(C)c1ccc(C2(C)NC(=O)N(CC(=O)Nc3ccc4c(c3)OCO4)C2=O)cc1 (stereo not given)	-14.7%	-4.8%
109	CCOC(=O)c1c(N)sc(C(=O)N2CCCCC2)c1C	5.9%	1.0%
110	CCC(=O)Nc1ccccc1C(=O)OC(c1ccccc1)c1ccccc1	9.0%	13.7%
111	COc1cccc(NC(=O)c2ccccc2-c2nc(-c3ccccc3)no2)c1	-6.8%	?
112	CN1CCN(C(c2ccc(Cl)cc2Cl)c2sc3nc(-c4ccco4)nn3c2O)CC1 (stereo not given)	-0.3%	.
